VACV mCherry inh: qHTS for Stage-Specific Inhibitors of Vaccinia Orthopoxvirus: mCherry Reporter Primary qHTS | Vaccinia virus mCherry reporter infection, fluorescence; about a quarter of the inactives have no number | Potency, µM (series often up to 36.5 µM), inactives show at the top dose activity change, negative = inhibition, most hits filed as inhibitors | 310,000 tested, 0.63% active | AID 720579, 2013; active = well fitted inhibition curve with a large enough effect; inconclusive = small, poorly fitted or top-dose-only effect; inactive = no such curve, though single readings can be large or run the other way; tested in A549 cells; also: nearly all actives have a fitted effect of over 35% in size; inactives centre near -10
VACV Venus inh: qHTS for Stage-Specific Inhibitors of Vaccinia Orthopoxvirus: Venus Reporter Primary qHTS; Potency, µM (highest dose often 36.5 µM), for the others: at the top dose activity change, negative = inhibition, most hits filed as inhibitors; Vaccinia virus Venus reporter expression, fluorescence; 330,000 tested, 0.46% active; active means well fitted inhibition curve with a large enough effect; inconclusive means small, poorly fitted or top-dose-only effect; inactive means no such curve, though single readings can be large or run the other way; tested in A549 cells; also: nearly all actives have a fitted effect of over 30% in size; inactives centre near -10
Starred values were filed as active, the others as inactive; i = inactive; ? = inconclusive; . = no result given; & = joins results of further samples; [ ] = remark or other dose. % is scaled to controls: 0 for no effect and ±100 for the full control effect; potency is read from the fitted curve at half-maximal effect.

Structure | VACV mCherry inh | VACV Venus inh
CC(=O)NC1C(=O)N=C(SCC(=O)Nc2cccc(Cl)c2)NC1=O (configuration not stated) | -4% | -6%
Cc1cccc(N(C)C(=S)Oc2ccc3ccccc3c2)c1 | -20%&-1% | -17%&-19%
O=[N+]([O-])c1c(NCCO)cc(N2CCCCC2)c2nonc12 | i | -10%
COc1cc(-c2nc(Cn3nnc(C(=O)Nc4ccccc4)c3C)c(C)o2)cc(OC)c1OC | -8% | -4%
O=C(COC(=O)c1ccc(S(=O)(=O)N2CCCCCC2)cc1)Nc1ccccc1C(F)(F)F | i | -7%
CN(C)CC(=O)N[C@@H]1CC[C@@H](CCNS(=O)(=O)c2ccccc2)O[C@@H]1CO | -7% | -8%
CCCCCCCCCCCCCCCC(=O)OC/C=C(C)/C=C/C=C(C)/C=C/C1=C(C)CCCC1(C)C | i | -1%&-13%
NC(=O)CC1C(=O)N(c2ccccc2)C(=S)N1NC(=O)c1ccccc1 (configuration not stated) | -20% | -14%
CCCC(=O)N1CCC1(C)C(=O)Nc1ccc(-n2cccc2)cc1 (configuration not stated) | -7% | -1%
CCC(C)C(NS(=O)(=O)c1ccc(C)cc1)C(=O)Oc1ccc2c3c(c(=O)oc2c1)CCC3 (configuration not stated) | -12% | 1%
CC(=O)c1ccc(C(C)(C)c2ccc(C(C)=O)s2)s1 | ? | ?
CCOC(=O)[C@@H](NC(=O)/C=C/[C@H]1O[C@@H](n2cc(C)c(=O)[nH]c2=O)C[C@@H]1O)C(C)C | 17% | 4%
C/C(=C\c1ccccc1)C(=O)N1CCN(c2cccc(C(F)(F)F)c2)CC1 | -20% | -16%
CN1CCN(c2ccccc2NC(=O)c2cccc(OCc3ccccc3)c2)CC1 | ? | ?
Cc1ccc(N2CC(C(=O)Nc3ccc(Br)cc3)CC2=O)cc1 (configuration not stated) | -14% | -10%
CC(C)OCCCNC(=O)CN1C(=O)/C(=C/c2ccccc2F)Oc2ccccc21 | i | -7%
CCOC(=O)c1cc(-c2ccccc2)sc1NC(=O)COC(=O)c1ccc(Cl)c(S(N)(=O)=O)c1 | 9% | 2%
CC(C)C(=O)N(c1cc2sc(=O)oc2c2ccccc12)S(=O)(=O)c1cccs1 | -6% | 2%
CCCN1CCN(C(=O)Cn2cnc3sc(C)c(S(=O)(=O)N4CCC(C)CC4)c3c2=O)CC1 | ? | 1%
COc1ccc(CCNS(=O)(=O)c2cc(-c3cc(C)no3)ccc2C)cc1OC | -25% | -21%
C[C@@]12CCC[C@H](O1)[C@@H]([C@H](O)c1ccccc1)O2 | i | -9%
CN(Cc1nc(-c2ccc(Cl)cc2)no1)C(=O)c1ccc2c(c1)OCO2 | i | -12%
O=C(COc1ccc(Br)cc1)NCCNC(=O)c1ccccn1 | -13% | -9%
COc1ccc(S(=O)(=O)N(C)C[C@H]2Oc3ccc(NC(=O)Nc4c(C)noc4C)cc3C(=O)N([C@H](C)CO)C[C@@H]2C)cc1 | -1% | -7%
O=C1c2ccc([N+](=O)[O-])cc2S(=O)(=O)N1Cc1ccccc1 | ? | ?
CCCc1cc2c(cc1NC(=O)c1ccco1)OCO2 | 8% | 3%
O=C(Nc1ccccc1)c1ccccc1OCc1ccccc1 | -8% | -6%
Cc1cc(C)n(-c2cccc(F)n2)n1 | -4% | 4%
CCCOc1ccc(F)cc1-c1cc(C(=O)Nc2cc(OC)ccc2OC)[nH]n1 | i | -15%
CCN(CC(N)=O)S(=O)(=O)c1ccc(Br)cc1 | i | -19%
CCCC/C(O)=C/c1nc2ccccc2[nH]c1=O | . | -18%
O=C(N/N=C/c1ccccn1)c1cc(-c2ccncc2)nc2ccccc12 | ? | 3%
O=C(c1ccccc1F)N1CCCC(c2ccccc2)C1 (configuration not stated) | -1% | -4%
COc1ccc(OC)c(CNC(=O)C(C)n2nc(C)c3c(C)n(-c4ccccc4)nc3c2=O)c1 (configuration not stated) | i | -3%
CCOc1ccc(C(=O)CCC(=O)N2CCN(c3ncccn3)CC2)cc1 | -12% | -3%
Cn1c(CCN2CCN(c3ccccc3)CC2)nc2cc(NC(=O)c3ccco3)ccc21 | ? | -22%
COc1ccc(Cn2c(CO)cnc2SCc2cccc(C)c2)cc1 | -6% | 0%
Cc1ccc(Cl)cc1N1CCN(CC(=O)NC2CCCc3ccccc32)CC1 (configuration not stated) | -13% | ?
CCc1ccc(NC(=O)CCC(=O)N2CCSc3ccccc32)cc1 | -12% | -3%
CCCNC(=O)Cn1nc(C(F)(F)F)c2c1CCCC2 | -17% | -9%
Cc1c(F)cccc1NC(=O)c1ccc2c(c1)CCN2S(C)(=O)=O | 8% | 0%
CN(C(=O)COC(=O)c1cccc(F)c1)c1ccccc1 | -9% | -2%
CC1CCCC(C)N1S(=O)(=O)c1ccc(NC(=O)CNCC2CCCO2)cc1 (configuration not stated) | -13% | -15%
CC(=O)SCCC(=O)N1C(C)CCCC1C(=O)O (configuration not stated) | . | -20%
COCCSc1nnc(NC(=O)c2ccc(NC(C)=O)cc2)s1 | i | -11%
O=C(NCc1ccccc1)c1cc(S(=O)(=O)N2CCOCC2)ccc1F | . | 7%
Cc1cccn2c(=O)c(C=O)c(Nc3ccccc3)nc12 | i | -2%
O=C(NCc1nnnn1-c1ccc(Cl)cc1)c1ccc2c(c1)OCO2 | -3% | -14%
Cc1cccc(C=NOCCc2ccccc2)n1 | i | -6%
COc1ccc(NC(=O)CCNS(=O)(=O)c2cccc3nsnc23)c(OC)c1 | i | -8%
O=C1c2cccc3cccc(c23)C(=O)N1c1ccncc1 | 6% | 3%
O=C(NCc1cccnc1)Nc1ccccc1 | i | -13%
CCC(C)NC(=O)Cc1ccc(NC(=O)N2CCCCc3ccccc32)cc1 (configuration not stated) | -12% | -5%
Cc1ccc(C(=O)Nc2ncccc2O)o1 | -20% | -8%
COc1cc(/C=C2\C[C@H]3[C@@H]4CC=C5C[C@@H](N6CCCC6)CC[C@]5(C)[C@H]4CC[C@]3(C)[C@H]2O)cc(OC)c1OC | -10% | -9%
COc1cc(CNn2cn[nH]c2=S)ccc1OCC(=O)NC(C)(C)C | i | -4%
CCc1ccc2nc(N(Cc3cccnc3)C(C)=O)sc2c1 | -16%[7.34 µM] | -7%[7.34 µM]
C/C(=N\NC(=O)c1ccc(Cl)cc1)c1ccccn1 | ? | ?
CC(=O)C1=C(O)C(=O)N(C)C1c1ccccc1[N+](=O)[O-] (configuration not stated) | ? | -8%
c1ccc(Nc2c(-c3c[nH]c4ccccc34)nc3ccccn23)cc1 | -3% | -8%

Next structures follow:
Structure | VACV mCherry inh | VACV Venus inh
Cc1ccc(-c2nc3scc(CCNC(=O)c4cccc(Br)c4)n3n2)cc1 | ? | ?
O=C(N/N=C/c1ccccc1[N+](=O)[O-])c1ccc2c(c1)OCCO2 | ? | -18%
O=C(C[N+]1(CC#Cc2ccccc2)CCOCC1)c1ccccc1 | -15% | -16%
O=C(C[n+]1ccc(C(=O)c2ccccc2)cc1)Nc1ccc(C(F)(F)F)cc1 | ? | -20%
O=C(NCC1CCCO1)c1onc(CSc2cccc3ccccc23)c1C(=O)O (configuration not stated) | i | -16%
CC1(C)CC(=O)C=C(N2CCOCC2)C1 | -7% | -6%
Cc1cccc(N(CC(=O)NCCSCc2ccccc2)S(C)(=O)=O)c1 | i | -6%
O=C(C1=C[C@@H](c2csc3ccccc23)C[C@@H](OCc2ccc(CO)cc2)O1)N1CCN(Cc2ccc3c(c2)OCO3)CC1 | ? | -25%
COc1ccc(CN2CCC(CNC(=O)NC3CCCCC3)CC2)cc1 | -23% | -17%
CSCCC1NC(=O)C(C(C)=Nc2ccccc2)=C1O (configuration not stated) | -17% | -15%
CCOc1cc(/C=N/Nc2ncnc(Cl)c2N)ccc1O | -4% | -14%
O=C(Nc1ccc2c(c1)OCO2)c1cccc2c1C(=O)N(Cc1cccnc1)C2 | -7% | -19%
Cc1ccc(C2=Nc3ccccc3SC(c3cccc([N+](=O)[O-])c3)C2)cc1 (configuration not stated) | ? | -12%
Nc1cc([N+](=O)[O-])ccc1OCc1ccccc1 | i | -14%
COc1ccccc1NC(=O)Cn1cc(S(=O)(=O)Cc2ccccc2)c2ccccc21 | -17% | -7%
CC(=O)Nc1ccc(NC(=O)c2ccnn2C)cc1 | 5% | 9%
COc1ccccc1Cc1c(-c2ccc(C)cc2)nc2cc(C)c(Br)c(C)n12 | -10% | -8%
Cc1cc2cc3c(cc2nc1SCC(=O)O)CCC3 | i | 0%
N=c1n(N)c2ccccc2n1CC(=O)c1ccc(Br)cc1 | -28% | -20%
CCCNC(=O)c1ccc2c(=O)c(O)c(-c3ccc(OC)cc3)[nH]c2c1 | -12% | -12%

Part of the list above, with two lines to a compound.
Fields: VACV mCherry inh | VACV Venus inh
O=C(C[n+]1ccc(C(=O)c2ccccc2)cc1)Nc1ccc(C(F)(F)F)cc1
 : ? | -20%
O=C(NCC1CCCO1)c1onc(CSc2cccc3ccccc23)c1C(=O)O (configuration not stated)
 : i | -16%
CC1(C)CC(=O)C=C(N2CCOCC2)C1
 : -7% | -6%
Cc1cccc(N(CC(=O)NCCSCc2ccccc2)S(C)(=O)=O)c1
 : i | -6%
O=C(C1=C[C@@H](c2csc3ccccc23)C[C@@H](OCc2ccc(CO)cc2)O1)N1CCN(Cc2ccc3c(c2)OCO3)CC1
 : ? | -25%
COc1ccc(CN2CCC(CNC(=O)NC3CCCCC3)CC2)cc1
 : -23% | -17%
CSCCC1NC(=O)C(C(C)=Nc2ccccc2)=C1O (configuration not stated)
 : -17% | -15%
CCOc1cc(/C=N/Nc2ncnc(Cl)c2N)ccc1O
 : -4% | -14%
O=C(Nc1ccc2c(c1)OCO2)c1cccc2c1C(=O)N(Cc1cccnc1)C2
 : -7% | -19%
Cc1ccc(C2=Nc3ccccc3SC(c3cccc([N+](=O)[O-])c3)C2)cc1 (configuration not stated)
 : ? | -12%
Nc1cc([N+](=O)[O-])ccc1OCc1ccccc1
 : i | -14%
COc1ccccc1NC(=O)Cn1cc(S(=O)(=O)Cc2ccccc2)c2ccccc21
 : -17% | -7%
CC(=O)Nc1ccc(NC(=O)c2ccnn2C)cc1
 : 5% | 9%
COc1ccccc1Cc1c(-c2ccc(C)cc2)nc2cc(C)c(Br)c(C)n12
 : -10% | -8%
Cc1cc2cc3c(cc2nc1SCC(=O)O)CCC3
 : i | 0%

Later entries.
Structure | VACV mCherry inh | VACV Venus inh
O=C(COc1cc(F)ccc1[N+](=O)[O-])Nc1cc(S(=O)(=O)N2CCCC2)ccc1Cl | i | -13%
Cc1ccc(/C=N/NC(=O)CSc2nc3ccccc3n2Cc2ccc(Cl)cc2)o1 | -9% | -1%
CC1CCN(C(=O)CCc2nnc3ccc(NCc4ccco4)nn23)CC1 | -15% | -7%
CSc1ccccc1NC(=O)c1cc(-c2cccnc2)nc2ccc(Br)cc12 | i | -10%
Cc1ccc(Cl)cc1-n1ncc2c(NCCC3=CCCCC3)ncnc21 | -13% | -17%
Cc1c(C(C)(C)O)[nH]c2ccc(C#N)cc12 | i | -17%
Cc1ccc(C)c(OCC(=O)N(Cc2nnc(-c3ccccc3Cl)o2)C2CC2)c1 | -6% | -18%
CC(=O)Nc1ccc(N2C(=O)CCC2=O)cc1C | -7% | 1%
Cc1cccc(C)c1OC(=O)CN1C(=O)c2ccccc2C1=O | i | 2%
CC(=O)c1cccc(-c2cnc3c(NC=O)cc(-c4ccccc4F)cn23)c1 | -6% | -27%
COc1ccc(CNC(=O)COc2ccc(C(=O)c3ccc(F)cc3)cc2)cc1 | ? | -22%
CSc1cccc(NC(=O)CNS(=O)(=O)c2ccccc2)c1 | i | 5%
NC(=O)CSc1nc2ccccc2n1Cc1ccccc1F | -20% | -10%
COc1ccc(S(=O)(=O)N2C(=O)/C(=C3\SC(N)=NC3=O)c3ccccc32)cc1 | -19% | -11%
N=c1n(CCN2CCOCC2)c2ccccc2n1CC(O)COc1ccccc1 (configuration not stated) | -19% | 11%
COc1ccc(C2CC(c3c(O)n(C4CCCCC4)c(=O)[nH]c3=O)=Nc3ccccc3S2)cc1 (configuration not stated) | -27% | -29%
O=C(Cn1nnc(-c2ccccc2F)n1)OCC(=O)c1ccccc1 | -7% | 4%
Fc1ccccc1NC(=S)NCCc1cccc(Cl)c1 | -9% | -13%
Cc1ccccc1C#N | i | -9%
CCN1C(=O)/C(=C\N2CCCc3ccccc32)SC1=S | -20% | -6%
C=CC(C)n1c(Br)nc2c1c(=O)[nH]c(=O)n2C (configuration not stated) | -15% | -16%
CC(=O)Nc1ccc(S(=O)(=O)NCc2ccc(C)n2C)cc1 | -3% | 7%
CCOc1cccc(-c2c(C(=O)N/N=C(\C)c3cccnc3)nnn2-c2nonc2N)c1 | -22% | -8%
O=C(Nc1ccc2c(c1)OCO2)C1CCCN(S(=O)(=O)Cc2ccccc2)C1 (configuration not stated) | -3% | -18%
NC(=O)c1c(N)sc(=S)n1-c1ccccc1 | -23% | -21%
Cc1ccc(/C=N\NC(=O)COc2ccc(C)cc2[N+](=O)[O-])cc1 | i | -11%
Cc1ccc(C(=O)Oc2cc(-c3ccccc3)no2)cc1 | . | 1%

2 of these compounds in a different format:
Each structure is followed by: VACV mCherry inh, VACV Venus inh
> Cc1ccc(C(=O)Oc2cc(-c3ccccc3)no2)cc1
 : ., 1%
> NC(=O)c1c(N)sc(=S)n1-c1ccccc1
 : -23%, -21%
